Sa growth inh: blocks Staphylococcus aureus growth; AID 720641; S. aureus RN4220 growth, OD600, 20 h, 42 °C; stronger effect = lower value; 0.53% of 170,000 active; relative growth, % (no concentration beside the values);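 active = growth at 42 °C up to 50% and 20 or more points under that at 30 °C, or under 10% at both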;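 note: 300 nL library stock went into each well; scaled to the means of positive and negative controls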
HCMV UL50-53 inh: cytomegalovirus nuclear egress complex inhibition; HTRF UL50-UL53 interaction, normalized percent inhibition; inhibition, % (no concentration beside the values); 0.15% of 190,000 active;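 active = both replicates at 50% or more, plus weaker picks with an unusually low signal ratio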;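 note: stock transfer was 100 nL into about 20 µL; 0% = negative control wells and 100% = wells with untagged competitor protein; inactives centre near -12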
GIV-Gai inh: GIV-Galpha-i interaction inhibition; AID 1224905; P08753; percent of control (FP), % (no concentration beside the values); 0.42% of 210,000 active; Galpha-i3/FITC-GIV peptide fluorescence polarization, 90 min; stronger effect = lower value; scaled: aluminum fluoride 0%, vehicle 100%;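 active = replicate mean at 85% of control or lower, very high polarization wells dropped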;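 note: wells of about 15 µL received 100 nL stock; the first replicate is given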
Target sequence (P08753 whole entry, looked up): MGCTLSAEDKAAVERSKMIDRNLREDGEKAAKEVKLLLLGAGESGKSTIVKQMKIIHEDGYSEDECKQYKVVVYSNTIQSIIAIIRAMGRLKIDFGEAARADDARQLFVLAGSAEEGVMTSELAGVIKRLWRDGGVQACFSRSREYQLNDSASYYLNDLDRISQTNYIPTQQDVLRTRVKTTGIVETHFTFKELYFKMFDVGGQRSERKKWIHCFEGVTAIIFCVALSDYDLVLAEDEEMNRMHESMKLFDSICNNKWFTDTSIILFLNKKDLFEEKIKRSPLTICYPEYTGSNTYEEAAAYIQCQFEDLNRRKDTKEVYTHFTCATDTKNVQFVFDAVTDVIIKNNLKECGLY
Sa growth inh second temp: recorded beside Sa growth inh, whose call it bears; relative growth, %; measured here: growth at 30 °C;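 optical density after 20 h as mean of two plates; 100% = untreated growth and lower means inhibition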
The depositor's hits bear a star; x = not tested or not shown; & = joins results of further samples.

Each structure is followed by: Sa growth inh	Sa growth inh second temp	HCMV UL50-53 inh	GIV-Gai inh
O=C1c2ccccc2C(=O)C1(c1ccccc1)N1CCN(c2cccc(C(F)(F)F)c2)CC1
 : 114	97	3	107
CN(C)C(=O)Oc1cccc([N+](C)(C)C)c1
 : 99&90	101&82	-18&-16&-19&-12	98&99
CCn1cc(C(=O)NCc2ccccc2Cl)c(=O)c2cc(S(=O)(=O)N3CCCCCC3)ccc21
 : 109	91	-15	101
CC(=O)OCC12COC(C)C(C1)C(C)=CC2C (stereo unspecified)
 : 124	79	-384	101
Cc1ccc2nc(-c3c[nH]c4ccccc34)c(Nc3ccccc3C)n2c1
 : 104	85	-11	107
COc1cc(Nc2ncnc3onc(-c4ccc(Cl)cc4)c23)cc(OC)c1
 : 101	90	x	104
COc1ccc(OC)c(NC(=O)Cn2c(=O)n(CC3CCCO3)c(=O)c3cc(OC)c(OC)cc32)c1 (stereo unspecified)
 : 103	88	-8	105
COc1ccc(NC(=O)c2c(C)oc3ccc(O)c(CN(CC(C)C)CC(C)C)c23)cc1
 : 78	81	-11	101
Cc1nc(N2CCOCC2)c2c(C)c(C(=O)N(Cc3ccc(N(C)C)cc3)Cc3ccco3)sc2n1
 : x	x	0	103
CC1CCCC(NC(=O)COC(=O)c2ccccc2C(F)(F)F)C1C (stereo unspecified)
 : 104	96	-1	x
O=C1c2ccccc2C(=O)c2c1nc1n2CCCC1
 : 65	20	-166	95
O=C(NCc1cccc(Br)c1)C1CCCN(c2nnc(N3CCCC3=O)s2)C1 (stereo unspecified)
 : 109	86	-5	103
CC1=CC(C)C2C(=O)N(CCC[N+](C)(C)C)C(=O)C2C1 (stereo unspecified)
 : 107	96	-6	108
O=C1CCCN1c1nc(-c2ccccc2)cs1
 : 90	100	-6	x
Cc1ccc2nc(-c3ccc(F)cc3)c(NC(C)(C)CC(C)(C)C)n2c1
 : 80	92	-22	105
CCOC(=O)c1nn(-c2ccccc2)c(C(=O)OCC)c1NC(=O)c1nn(CC)cc1Br
 : 84	73	-7	104
CN1CCc2cc3c(cc2C(=O)Cc2ccc4c(c2C1)OCO4)OCO3
 : x	x	-8	97
CCCN(CCC)C(=O)c1ccccc1NC(=O)c1ccccc1Cl
 : 95	91	-6	96
CCOC(=O)c1nn(-c2ccc(C)cc2)cc1C#N
 : 127	100	58	111
NC(=O)C1CC(=O)N(c2ccc(OCC(=O)Nc3ccccc3)cc2)C1 (stereo unspecified)
 : 90	82	-25	97

Structural class, the compounds so far containing fluorine
Each structure is followed by: Sa growth inh	Sa growth inh second temp	HCMV UL50-53 inh	GIV-Gai inh
O=C1c2ccccc2C(=O)C1(c1ccccc1)N1CCN(c2cccc(C(F)(F)F)c2)CC1
 : 114	97	3	107
CC1CCCC(NC(=O)COC(=O)c2ccccc2C(F)(F)F)C1C (stereo unspecified)
 : 104	96	-1	x
Cc1ccc2nc(-c3ccc(F)cc3)c(NC(C)(C)CC(C)(C)C)n2c1
 : 80	92	-22	105

(list continues)
Each structure is followed by: Sa growth inh	Sa growth inh second temp	HCMV UL50-53 inh	GIV-Gai inh
CS(=O)(=O)c1ccc(-c2nnc(NC(=O)c3ccc4c(c3)OCCO4)o2)cc1
 : 85	85	x	99
CCc1ccc(CNC(=O)C2CCCN(c3nnc(C)c4c(C)n(-c5ccc(OC)cc5)nc34)C2)cc1 (stereo unspecified)
 : 115	84	x	115
CCCCN(C)S(=O)(=O)c1ccc(C(=O)Nc2sc3c(c2C(N)=O)CC(C)(C)NC3(C)C)cc1
 : 106	73	x	98
Cn1c(=O)n(C)c2cc(-c3nc4sc5c(c4c(=O)[nH]3)CCC5)ccc21
 : 92	88	-57	101
CCN(C(=O)Cn1nc(C)n2c(cc3cc(C)ccc32)c1=O)c1ccccc1
 : 125	89	x	103
Cc1cc(C)n(CCS(=O)(=O)c2ccc(Cl)cc2)n1
 : 97	83	-27	103
Cc1ccc(CN2CCN(C3CCN(S(=O)(=O)c4ccc(C)cc4C)CC3)C(=O)C2=O)cc1
 : x	x	-10	100
CCOC(=O)c1c(C)[nH]c(C(=O)N2CCC(CC(=O)NC(C)c3ccccc3)CC2)c1C (stereo unspecified)
 : x	x	-15	109
O=C(O)c1ccc(OCc2occc2C(=O)O)cc1
 : 95	113	1	97
CC(=O)N1Cc2ccccc2CC1C(=O)O (stereo unspecified)
 : 114	90	-16	x
COc1ccc(NC2CC(C)N(C(=O)c3ccccc3)c3ccc(OC)cc32)cc1 (stereo unspecified)
 : x	x	-18	103
O=C1CC(c2ccc(S(=O)(=O)NCCc3ccccc3)cc2)CN1 (stereo unspecified)
 : 87	86	-26	104
O=C(CCSCc1cnn(-c2ccccc2)c1-n1cccc1)N1CCN(C2CCCCC2)CC1
 : x	x	13	97
Cc1cccc(NC(=O)c2sc3nc(-c4ccc(F)cc4)cn3c2C)c1C
 : x	x	-8	103
C=CCn1c(=S)sc2c(=O)n(/N=C/c3ccc(Cl)cc3Cl)c(C)nc21
 : 81	90	-10	98
Cc1cccc(C(=O)Nc2ccccc2C(=O)N2CCOCC2)c1
 : 108	102	-9	106
O=C(NCc1cccc(F)c1)C1CCN(c2nc3ccccc3nc2C(F)(F)F)CC1
 : 101	91	x	99
Cc1ccsc1CC1C(=O)Nc2c(C)cccc21 (stereo unspecified)
 : x	x	3	107
O=C(O)COc1ccccc1/C=N/N1CCN(Cc2ccc(Cl)cc2)CC1
 : 93	84	-22	x
CCOc1ccc2ncc3c(-c4ccc(F)cc4)n[nH]c3c2c1
 : x	x	7	101
COC(=O)c1ccccc1NC(=O)c1cc(-c2ccco2)on1
 : 99	98	2	105
O=C(OCC1CCCO1)c1ccc2c(c1)N(Cc1ccc(F)cc1)C(=O)c1ccccc1S2 (stereo unspecified)
 : x	x	-16	103
Cc1noc2ncnc(NCCCN(Cc3ccccc3)C(C)C)c12
 : 96	92	-18	96
Cc1ccc(N2C(=N)S/C(=C/c3sccc3C)C2=O)cc1C
 : 93	92	x	114
Cc1ccc(S(=O)(=O)c2c(C)cc(C)n(CC(=O)Nc3ccc(F)c(F)c3)c2=O)cc1
 : x	x	-31	97
CC(=O)N1CCC2(CC1)OC(=O)C(C)=C2C(=O)NCc1ccccc1
 : 91	84	-27	102
Cc1ccc(NCc2c(C#N)c3ccccc3n2C)cc1
 : 138	79	-11	104
COc1ccc(OC)c(S(=O)(=O)NCc2nc(N)n(S(=O)(=O)c3cc(OC)ccc3OC)n2)c1
 : 103	97	2	111
Cn1/c(=N/N=C/c2ccc(OCC(N)=O)cc2)sc2ccccc21
 : 104	102	-20	104
Cc1ccc(-n2ncc(C(=O)Nc3ccc4c(c3)OCO4)c2C2CCN(C(=O)OC(C)(C)C)CC2)cc1
 : 92	84	x	113
O=C(CC1SC(=O)NC1=O)Nc1ccc(O)cc1 (stereo unspecified)
 : 86	72	-14	103
CCC(C(=O)Nc1nc2nc(C)c(Cl)c(=O)n2[nH]1)c1ccccc1 (stereo unspecified)
 : 95	89	-11	103
COc1cccc(NC(=O)c2oc3ccccc3c2NC(=O)c2cc3ccccc3o2)c1
 : 102	97	22	108
O=C(NC1CCCCC1)C(C(=O)c1ccccc1)n1ccccc1=O (stereo unspecified)
 : 104	96	-9	x
O=C(CSc1nc(-c2ccccc2)c2cc(F)ccc2n1)N1CCCCC1
 : x	x	2	104
Cn1cc(NC(=O)Nc2cccnc2)c2ccccc2c1=O
 : 93	90	8	100
CC1CCN(CC(O)COc2ccccc2)CC1 (stereo unspecified)
 : 88	92	-10	x
CC(=O)Nc1ccc2oc(-c3ccc(C#N)cc3)cc(=O)c2c1
 : 101	87	-60	99
CC(C)OC(=O)C(C)Nc1n[nH]c(=O)[nH]c1=O (stereo unspecified)
 : 92	92	-24	x
O=C(C1=Cc2cc(Cl)ccc2OC=C1)N1CCOCC1
 : x	x	-57	97
Cc1ccc[n+](CC(=O)c2cccs2)c1
 : 101	118	6	98
Oc1cccc(/C=N/n2cnnc2)c1
 : 94	96	-12	103
O=C(CN1C(=O)c2ccccc2Sc2ncccc21)N1CCN(c2ccc(Cl)cc2)CC1
 : x	x	-117	111
O=c1oc(-c2cccs2)nc2c(Br)cc(Br)cc12
 : 112	90	x	102
O=C(c1cccs1)N1CCN(c2ccccn2)CC1
 : 109	93	-14	101
COc1ccc(CNC(=O)c2ccc(Cl)c(-n3c(C)nc4cccnc43)c2)c(OC)c1
 : x	x	-9	118
O=C(O)c1ccccc1C(=O)N1CCN(C(c2ccccc2)c2ccccc2)CC1
 : 114	94	-18	96
Cc1ccccc1C(=O)N/C(=C/c1ccc(-c2cccnc2Cl)o1)C(=O)NC1CC1
 : 108	105	-4	104
Clc1ccc(CCNC(c2nnc(-c3ccccc3)o2)c2ccccc2Cl)cc1 (stereo unspecified)
 : 100	96	14	103
CC(C)C(NC(=O)C1COc2ccccc2O1)c1nc2ccccc2[nH]1 (stereo unspecified)
 : 97	75	-21	x
Cc1c(/C=N/n2cnnc2)c2ccccn2c1C(=O)c1ccc(F)cc1
 : 89	63	-117	x
Cn1c(O)c(C2=NNC(c3ccc4c(c3)OCO4)C2)c(=O)n(C)c1=O (stereo unspecified)
 : x	x	-17	101
CCC1=Nc2cc(C(=O)NCCCN3CCN(C)CC3)ccc2Sc2ccccc21
 : 110	86	-25	104
Fc1ccc(-n2ncc3c(Nc4cccc(Cl)c4)ncnc32)cc1
 : 107	88	x	105
CC(C)CC(=O)Nc1cccc(N2CCn3c(nc4cc(Cl)ccc43)C2)c1
 : x	x	28	97
COc1ccc(NC(=O)c2sc3nc4n(c(=O)c3c2C)CCCCC4)c(OC)c1
 : x	x	1	105
Cc1cc(C(N)=O)c2ccccc2n1
 : 98&106	94&99	-28&1	104
CCOC(=O)c1sc(N(Cc2ccccc2)C(=O)CN2CCN(C(C)=O)CC2)nc1C
 : 98	90	0	x
O=S(=O)(CCN1CCN(c2ccccn2)CC1)c1ccc(F)cc1
 : 95	94	-25	103
CS(=O)(=O)N(CC(=O)NCc1ccco1)c1ccccc1Br
 : 96	94	x	100

Some of the entries above in another layout:
smiles | Sa growth inh | Sa growth inh second temp | HCMV UL50-53 inh | GIV-Gai inh
Oc1cccc(/C=N/n2cnnc2)c1 | 94 | 96 | -12 | 103
O=C(CN1C(=O)c2ccccc2Sc2ncccc21)N1CCN(c2ccc(Cl)cc2)CC1 | x | x | -117 | 111
O=c1oc(-c2cccs2)nc2c(Br)cc(Br)cc12 | 112 | 90 | x | 102
O=C(c1cccs1)N1CCN(c2ccccn2)CC1 | 109 | 93 | -14 | 101
COc1ccc(CNC(=O)c2ccc(Cl)c(-n3c(C)nc4cccnc43)c2)c(OC)c1 | x | x | -9 | 118

New compounds follow.
Each structure is followed by: Sa growth inh	Sa growth inh second temp	HCMV UL50-53 inh	GIV-Gai inh
CCS(=O)(=O)N1CCC(C(=O)Nc2nnc(-c3ccccc3)o2)CC1
 : 93	99	11	x
O=C(O)CSCC(=O)Nc1ccccc1
 : 92	86	-14	x
COc1ccc(Cn2c(C(=O)O)c(CNCc3cccc(OC)c3)c3ccc(C)cc32)cc1
 : 134	69	x	110
Cc1nn(C)c(C)c1CCN(C)C(=O)Nc1ccccc1Br
 : x	x	4	102
Clc1ccc(C2=NN(Cc3ccccc3)CC2)s1
 : 97	98	-16	121
CCOCCCNC(=O)c1ccc(-n2nnc3cccnc32)cc1
 : x	x	-20	112
CCOc1ccc(-c2ncnn2-c2sc3c(c2C#N)CCCCC3)cc1
 : 101	86	-56	107
C=C(C)c1cccc(C(C)(C)NC(=O)NCC2CCCO2)c1 (stereo unspecified)
 : 113	85	10	x
O=C1CC(C(=O)O)C2(CCCCC2)O1 (stereo unspecified)
 : 101	89	-6	104
O=C(Cn1nc(C(=O)O)c2ccccc2c1=O)NC(=O)NCc1ccco1
 : 95	93	-23	x
COC(=O)c1ccccc1NC(=O)Cc1ccsc1
 : 92	93	-28	x
COc1ccc(C(=O)Nc2nnc(Cc3nc4ccccc4[nH]3)s2)cc1Br
 : x	x	-25	118
COc1ccc(-c2nnc(SCc3cc(=O)n4c(C)csc4n3)o2)cc1
 : x	x	-15	103
Cc1ccc(-c2noc(C(C)c3ccc(CC(C)C)cc3)n2)cc1 (stereo unspecified)
 : 98	90	-36	100
Cc1c(-c2nc(-c3ccc4c(c3)OCO4)no2)oc2ccc(S(=O)(=O)N3CCOCC3)cc12
 : x	x	8	100
O=C(Cn1ncc2ccsc2c1=O)N1CCN(c2ccccc2)CC1
 : 116	91	-2	101

The order is random; about 0.79% have a hit in one of these screens.
